# BJeLR lethal: kills HRASV12-expressing BJeLR cells | AID 1554 | inhibition, % (concentration not given with the values) | BJeLR (HRASV12) viability, CellTiter-Glo ATP luminescence, 48 h; reference of the scale not given here | actives 0.17% (n = 300,000);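 active = replicate mean above 50%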;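 also: 50 nL library stock added to about 25 µL; numbers are from one replicate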
# Mtb hypoxia inh: inhibitors of hypoxia-regulated fluorescent reporter in Mycobacterium tuberculosis; fluorescence inhibition, % (test concentration not listed); actives 0.1% (n = 300,000); M. tuberculosis hypoxia-regulated fluorescent reporter, fluorescence;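 active = 35 to 45% if threefold the growth effect, above 45% if 1.5-fold the growth effect; inactive = the rest, general growth blockers included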;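 also: wells of about 50 µL received 100 nL stock; 0% = vehicle wells and 100% = reference inhibitor wells; whole bacteria with a GFP reporter of the hypoxia response; strong numbers were not always called active; many hits fall short of the cut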
# PrP 5UTR inh: suppresses PrP 5' UTR mRNA reporter expression. inhibition, % (no concentration beside the values). cell-based PrP 5' UTR mRNA reporter, plate reader. actives 0.35% (n = 340,000);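 active = every replicate at 50% or more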;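 also: 0 = median of the neutral control wells; tested in H4 reporter cells; numbers are from one replicate; inactives centre near -14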
# RN4220 kill: kills Staphylococcus aureus RN4220; actives 0.33% (n = 330,000); AID 1259311; inhibition, % (test concentration not listed); S. aureus RN4220 growth, OD600, 16 h;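 active = z-score of -3 or lower and OD600 up to 0.18 on both plates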;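 also: plate controls were untreated cells for no effect and reference antibiotic for full effect; stock transfer was 100 nL into about 80 µL; one replicate is shown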
# ugtP null kill: growth inhibition of S. aureus ugtP deletion strain | S. aureus RN4220 ugtP deletion, OD600 growth, 16 h; some inactives read as strong as hits | growth inhibition, % (test concentration not listed) | actives 0.54% (n = 330,000) | AID 1259309;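 active = z-score under -3 and OD600 up to 0.15 on both plates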;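 also: plate controls were untreated wells for no effect and antibiotic for full effect; wells of about 80 µL received 100 nL stock; the first replicate is given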
# Autofluor counter: compound fluorescence in toxin protease inhibitor counterscreen; compound autofluorescence counterscreen, microsphere flow cytometry; stronger effect = higher value; fluorescence intensity (no concentration beside the values); actives 3.1% (n = 360,000);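 active = at least 3 SD above the mean of all compounds, about 16000 in these data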;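 also: 100 nL of 1 mM stock went into each well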
# Mtb hypoxia inh growth: recorded beside Mtb hypoxia inh, whose call it bears; growth inhibition, %; measured here: M. tuberculosis growth (absorbance);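 0% = vehicle and 100% = reference antibiotic; read after six days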
# Starred values were filed as active, the others as inactive; · = no result given; & = joins results of further samples; ! = repeats disagree.
SMILES,BJeLR lethal,Mtb hypoxia inh,Mtb hypoxia inh growth,PrP 5UTR inh,RN4220 kill,ugtP null kill,Autofluor counter
Cc1noc(/C=C/c2ccco2)c1S(=O)(=O)N1CCC(C(=O)NC(C)c2ccccc2)CC1 (stereo not drawn),-9,8,11,-18,-17,-8,4797
O=C(Cc1ccc(NC(=O)C2CCN(C(=O)CCc3ccccc3)CC2)cc1)Nc1ccc(C(=O)N2CCOCC2)cc1,·,-6,6,-25,5.9,-3,3861
COc1ccc(C)cc1NC(=O)c1ccc2c(SCC(=O)O)c3c(nc2c1)CCCC3,-10,4,6,-18,11,-6,3806
Cc1nc(-c2ccc(NC(=O)c3ccc(Br)o3)cc2)cs1,30,13,0,-65,7.0,6,3243
CCOc1cc(CN2CCN(C(=O)c3ccco3)CC2)ccc1OC,1,-2,-5,-11,0.4,-8,2980
Cc1ccc(NS(=O)(=O)N2CCOCC2)c(C)c1,9,5,6,-14,1.7,8,5346
COc1ccc(C(CNC(=O)COc2cccc(C(F)(F)F)c2)N2CCCC2)cc1 (stereo not drawn),·,-2,3,18,0.9,-3,4435
Cc1ccc(OCC(=O)NNC(=O)C2CCN(c3ncccn3)CC2)cc1,-4,10,13,-4,3.3,0,13102
CC(C)(C=NNC(=O)CSCc1ccccc1Cl)CCC#N,·,9,2,·,6.2,-1,·
CC(=O)OC1CC2(C)C(=NO)CCC2C2CCc3cc(O)ccc3C12 (stereo not drawn),·,0,1,·,4.6,5,·
CC(C)(C)NC(=O)C(c1ccc(F)cc1)N(C(=O)CCC(=O)Nc1ccccn1)C1CCCC1 (stereo not drawn),2,0,-3,-16,2.1,14,3861
Nc1nc(-c2nonc2N)no1,13,8,6,71*,1.6,11,4651
O=C(Nc1ncc(Cc2ccc(C(F)(F)F)cc2)s1)c1ccc(-c2cccc([N+](=O)[O-])c2)o1,24,-14,-12,-22,8.4,-31,2394
COc1ccc(C2(C)NC(=O)N(CC(=O)Nc3cccnc3Cl)C2=O)cc1 (stereo not drawn),1,·,·,-16,·,·,6297
CCOC(=O)c1c(C)[nH]c(C(=O)N/N=C/c2cc([N+](=O)[O-])ccc2O)c1C,0,·,·,-1,·,·,5822
O=C(Nc1ccccc1O)c1ccc2c(c1)C(=O)N(c1ccccc1)C2=O,-2,8,-4,-16,1.7,8,2982
CC(Sc1nc2nn(-c3ccccc3)c(=O)c-2c2n1CCCCC2)C(N)=O (stereo not drawn),-6,·,·,-9,4.0,-15,4221
Cc1cc2nnc(SCC(=O)NCc3cccs3)n2c(N)n1,4,-15,16,-14,-1.3,-2,10627
C/C(=N\O)c1ccc2c3ccccc3n(C)c2c1,14,·,·,-37,·,·,21762*
CCn1c(SCC(=O)Nc2ccccc2N2CCOCC2)nnc1-c1ccccc1O,0,·,·,-11,4.9,9,2299
COC(=O)CCC(=O)Nc1ccccc1C(=O)Nc1ccccc1,-8,0,-1,-5,7.3,0,3177
O=C(CNC1CCCCC1)Nc1cccc([N+](=O)[O-])c1,1,13,11,-24,-0.3,-4,3224
CCOC(=O)c1c(NC(=O)COc2ncnc3sccc23)sc2c1CCC2,-3,4,16,-17,5.0,-1,4297
CC(=O)Nc1ccc(S(=O)(=O)NCc2cn3ccsc3n2)cc1,0,14,11,-45,3.2,6,5633
CCOCCc1c(O)nc(SCC(=O)N2CCOCC2)[nH]c1=O,4,1,-15,-14,2.5,5,4276
COc1ccc(S(=O)(=O)N(C)C[C@H]2Oc3ccc(NC(=O)C4CCCCC4)cc3C(=O)N([C@H](C)CO)C[C@@H]2C)cc1,·,3,11,-22,-16,-5,3028
CC(=O)O[C@@H]1[C@H]2[C@@H](C[C@@H](C)[C@@H]3CCC(=O)[C@@]13C)OC(=O)[C@@H]2C,-3,·,·,-9,·,·,3238
CN(CC(=O)Nc1ccc(Cl)cc1)C(=O)C1=COCCO1,-11,-3,8,-15,1.6,3,6178
O=C(COC(=O)CCc1c[nH]c2ccccc12)Nc1cc([N+](=O)[O-])ccc1Cl,1,-1,6,-13,6.7,2,2348
O=C(Cn1nc(-c2ccc(F)cc2)ccc1=O)Nc1ccc2c(c1)OCCO2,-6,8,3,-8,25,0,3115
CCn1c(=O)c2ccccc2n(Cc2cccc(C)c2)c1=O,1,8,-2,-2,1.1,5,3386
O=c1[nH]c(NCc2ccccc2)nc2c1CCC2,2,12,3,-23,1.8,-1,7449
Cc1ccc(NC(=O)COc2coc(CN3c4ccccc4CC3C)cc2=O)c(C)c1 (stereo not drawn),2,-5,-11,-1,-4.3,-5,4890
Cc1ccc(NCN2C(=O)c3ccccc3C2=O)c(C)c1,-4,·,·,-8,1.8,13,3779
Nc1[nH]ncc1C(=O)Nc1cccc(C(F)(F)F)c1,-3,·,·,-8,0.1,8,2673
O=C(C1Cc2ccccc2CN1S(=O)(=O)c1ccccc1[N+](=O)[O-])N1CCOCC1 (stereo not drawn),·,6,5,-11,0.3,-2,3561
Cc1ccc(S(=O)(=O)C(CCC(=O)N2CCOCC2)S(=O)(=O)c2ccc(C)cc2)cc1,0,14,7,-19,2.2,3,16223*
COc1cccc(OCC(O)CNC(=O)c2oc3ccc(C)cc3c2C)c1 (stereo not drawn),-3,18,4,-32,5.7,8,4069
C=CCNc1nc(C(=O)OCC(=O)Nc2ccccc2C(F)(F)F)cs1,·,9,11,-19,8.0,2,·
CCOC(=O)c1c(NC(=O)CSc2nnc(C)c(=O)[nH]2)sc(C)c1-c1ccc(C)cc1,1,6,10,-28,10,15,4537
O=C(NNC(=O)c1cc2cc3ccccc3nc2s1)c1cccc(C(F)(F)F)c1,0,·,·,-21,3.8,-7,2714
CCOC(=O)c1c(C)nc(-c2ccccc2)nc1NC(C)=O,3,·,·,-25,2.7,8,2735
Cc1cc(C)nc(Oc2ccc([N+](=O)[O-])cc2)n1,0,14,2,-36,7.6,8,4927
CCN1CCSc2ccc(C(=O)NCc3cccc(Br)c3)cc21,1,2,8,3,-16,-14,6306
CC(C)c1ccc(NC(=O)CSc2nc(=O)[nH]c3c2CCCC3)cc1,2,8,7,-4,0.6,16,4735
O=S(=O)(O)c1nc2ccccc2n1Cc1ccc(Cl)cc1Cl,3,5,4,-23,-9.7,-16,3143
COc1cccc(NC(=O)C2CCCN2C(=O)Nc2ccccc2)c1 (stereo not drawn),4,-7,-3,-19,0.8,8,3393
Cc1ccccc1OCC(=O)Nc1ccc2c(c1)C(=O)N(CCC(=O)O)C2=O,5,0,10,5,2.1,-4,4441
CC(Oc1cccc2cccnc12)C(=O)N/N=C/c1ccc2c(c1)OCO2 (stereo not drawn),9,·,·,-12,·,·,5957
CC(CN1CCCCC1)OC(=O)c1ccc2c(c1)OCCO2 (stereo not drawn),-5,-4,3,-30,-1.7,4,3044
Cc1ccc(C)c(CNS(=O)(=O)c2ccc3c(c2)C(C)(C)C(=O)N3C)c1,2,-2,-5,-3,6.4,-4,6097
Brc1ccc2[nH]cc(C=NN3CCCCC3)c2c1,·,4,6,·,7.8,-2,·
COC(=O)c1cc(NC(=O)CC2C(=O)NCCN2C(=O)c2ccccc2)cc(C(=O)OC)c1 (stereo not drawn),3,·,·,-5,3.0,9,2088
CCCCC(=O)N1CC=CC(c2ccc(OC)cc2)N(Cc2ccc(F)cc2)C(=O)C1 (stereo not drawn),·,7,9,·,6.1,7,·
c1csc(-c2ccc3ccccc3n2)c1,-6,·,·,-138,6.1,6,4254
CCCC(c1nnnn1Cc1ccc(F)cc1)N1CCN(CC)CC1 (stereo not drawn),7,4,0,-8,1.3,2,5446
O=C(CN1CCN(S(=O)(=O)c2ccc(F)c(Cl)c2)CC1)N1CCc2ccccc2C1,·,7,8,-2,15,7,4431
COC(=O)CCSCC(=O)Nc1cc(C)on1,3,4,1,-22,-0.2,-1,4389
O=C(N=C1SC2CS(=O)(=O)CC2N1c1c(Cl)cccc1Cl)C1CC1 (stereo not drawn),-4,9,1,-21,2.6,8,4186
Cc1cccc(-n2nnnc2SCC(=O)c2cc(C)n(CC3CCCO3)c2C)c1 (stereo not drawn),2,8,1,-18,2.1,18,4434
# Next section:
SMILES,BJeLR lethal,Mtb hypoxia inh,Mtb hypoxia inh growth,PrP 5UTR inh,RN4220 kill,ugtP null kill,Autofluor counter
CC(=O)NNC(=S)NC(=O)c1cccc([N+](=O)[O-])c1,-5,3,5,-13,8.4,14,1989
CCNC(=O)C(=O)NCc1ccncc1,1,·,·,-4,·,·,4205
N#CCSCC(=O)Nc1ccc(Br)cc1,6,8,4,-30,0.7,3,15871
CC1CCc2cccc3c(O)cc(=O)n1c23 (stereo not drawn),-10,1,8,-9,1.4,2,6063
Cc1ccc(NC(=O)CCc2nnc3ccc(N4CCN(C)CC4)nn23)cc1F,-2,3,-2,-33,-5.5,-4,4441
CC(=O)/C(N=Nc1ccc(OC(F)(F)F)cc1)=C(\C)O,-5,4,10,-10,4.8,15,4604
CCCCNC(=O)c1ccc(CNc2c(N3CCC(C(=O)OCC)CC3)c(=O)c2=O)cc1,9,-2,2,27&-26,4.9,13,23374*!
Cc1ccc(OCC(=O)Nc2ccc(O)c(C(=O)O)c2)cc1C,-12,11,4,-12,1.3,-2,10958
O=C(COC(=O)c1cc([N+](=O)[O-])ccc1NCCO)Nc1ccc2c(c1)OCO2,5,12,2,-22,4.3,-2,2708
Nc1ccc2cccc(O)c2c1,·,23,5,-13,8.8,0,2464
Cc1cccc(OCC(O)CN2CCN(C3CCCCC3)CC2)c1 (stereo not drawn),-1,·,·,-11,-3.9,0,2866
CCOc1ccccc1NC(=O)C1CCN(C(=O)c2cccs2)CC1,1,9,-7,-5,5.6,6,4753
COc1ccc(N/C=C(\C(C)=O)c2ccc(OC)c(OC)c2)cc1OC,6,-3,-2,-8,1.0,-2,3587
Cc1cc(C)c(NC(=O)CSc2nc3ncc(Br)cc3[nH]2)c(C)c1,-11,0,-7,-9,5.2,5,4481
COc1ccc(C(C)C)cc1S(=O)(=O)Nc1ccncc1,-1,2,-7,-15,-2.1,-2,4408
O=C(CN(C(=O)CSc1nc2ccccc2o1)c1ccccc1)NC1CCCCC1,1,4,2,-30,2.2,9,7860
CCC(=O)N1CCN(c2cc(N3CCCC3)c(F)cc2[N+](=O)[O-])CC1,3,0,-8,-11,-1.2,-3,3967
COc1ccc(C2/C(=C(/O)c3ccc4c(c3)CC(C)O4)C(=O)C(=O)N2CCCN2CCOCC2)cc1OC (stereo not drawn),-6,2,2,-25,2.8,4,5341
CCOc1cccc(CN2CCCC(N3CCc4ccccc4C3)C2)c1O (stereo not drawn),12,3,8,-12,1.6,0,3950
CSc1ncccc1C(=O)OCC(=O)N1CC(=O)Nc2ccccc21,·,2,1,-21,0.5,2,7959
CC(C)N(C(=O)CSc1nc(Cc2ccccc2)nc2ccccc12)C(C)C,3,-3,-3,-6,3.8,-6,·
CC1(C)c2[nH]c3ccccc3c2C[C@@H]2C(=O)N(Cc3ccccc3)C(=O)N21,10,·,·,-25,·,·,4158
COc1ccc(Cl)cc1NC(=O)CN(C)C(=O)CNC(=O)C12CC3CC(CC(C3)C1)C2,-4,6,-1,-13,1.3,-2,22487*
